Bioassay records as filed in PubChem BioAssay.
NOMO-1 viab = NOMO-1 AML cell viability reduction, primary screen, STK33 inhibitor project, CellTiter-Glo luminescence | hit rate 7.5% among 37,000 | inhibition, % (concentration not given with the values) | NOMO-1 AML viability, 72 h;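 active = most replicates above 80%; inconclusive = exactly half above 80%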;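 note: wells of about 30 µL received 25 nL stock; 0% = median of vehicle wells and 100% = reference inhibitor level; the first replicate is given; inactives centre near 10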
Numbers without * were called inactive; ? = inconclusive.

SMILES	NOMO-1 viab
C[C@@H]1CCCCO[C@@H](CN(C)C(=O)Nc2cccc3ccccc23)[C@@H](C)CN([C@H](C)CO)C(=O)c2cc(NC(=O)Nc3ccccc3)ccc2O1	40.8
C[C@@H]1CN([C@H](C)CO)C(=O)c2cc(NC(=O)Nc3ccc4c(c3)OCO4)ccc2O[C@H]1CN(C)C(=O)Nc1ccc(C(F)(F)F)cc1	23.2
C[C@@H]1CN([C@H](C)CO)C(=O)Cc2cc(NS(=O)(=O)c3ccc(F)cc3)ccc2O[C@H]1CN(C)S(=O)(=O)c1ccccc1	3.0
N#Cc1c(F)cccc1NCc1cccs1	14.3
C[C@H](CO)N1C[C@H](C)[C@@H](CN(C)Cc2ccc3c(c2)OCO3)Oc2ccc(NC(=O)c3ccncc3)cc2C1=O	9.5
C[C@@H]1CN([C@@H](C)CO)C(=O)Cc2cc(NC(=O)CCC(F)(F)F)ccc2O[C@@H]1CN(C)S(=O)(=O)c1ccccc1	17.5
C[C@H]1CN([C@@H](C)CO)C(=O)c2cc(NC(=O)Nc3ccc(F)cc3)ccc2O[C@@H]1CN(C)C(=O)Nc1ccc2c(c1)OCO2	1.8
C[C@H](CO)N1C[C@H](C)[C@H](CN(C)C)Oc2ccc(NS(=O)(=O)c3cn(C)cn3)cc2CC1=O	21.8
C[C@@H]1CCCCO[C@@H](CN(C)C(=O)NC2CCCCC2)[C@@H](C)CN([C@H](C)CO)C(=O)c2cc(N(C)C)ccc2O1	8.7
COc1ccc(S(=O)(=O)Nc2ccc3c(c2)C(=O)N([C@H](C)CO)C[C@H](C)[C@H](CN(C)C(=O)Nc2ccc4c(c2)OCO4)OCCCC[C@@H](C)O3)cc1	13.5
C[C@@H]1CCCCO[C@H](CN(C)C(=O)Nc2ccc(C(F)(F)F)cc2)[C@@H](C)CN([C@H](C)CO)C(=O)c2cc(NC(=O)NC3CCCCC3)ccc2O1	26.7
O=C(CCCCC(=O)Nc1c(I)cc(I)c(C(=O)O)c1I)Nc1c(I)cc(I)c(C(=O)O)c1I	24.9
C[C@H](CO)N1C[C@H](C)[C@H](CN(C)Cc2ccc(Cl)c(Cl)c2)Oc2ccc(NS(=O)(=O)c3cn(C)cn3)cc2CC1=O	4.5
C[C@@H]1CN([C@@H](C)CO)C(=O)Cc2cc(NS(=O)(=O)c3ccc(Cl)cc3)ccc2O[C@@H]1CN(C)Cc1ccncc1	6.2
Cc1ccc(S(=O)(=O)NCCNc2ccccc2[N+](=O)[O-])cc1	-6.0
NC(=O)COc1ccc(C2NC(=S)NC(c3ccccc3)=C2C(=O)c2ccccc2)cc1 (centres undefined)	4.5
O=C(CSc1nc(-c2ccccc2)cc(=O)[nH]1)NCC1CCCO1 (centres undefined)	15.8
C[C@H](CO)N1C[C@H](C)[C@@H](CN(C)Cc2ccccc2)Oc2ccc(NC(=O)NC3CCCCC3)cc2C1=O	12.6
CC(C)=CCC/C(C)=C/CC/C(C)=C/Cc1c(C)cc(O)cc1O	39.4
Cc1noc(C)c1NC(=O)N(C)C[C@@H]1OCCCC[C@@H](C)Oc2ccc(NC(=O)Nc3ccccc3)cc2C(=O)N([C@H](C)CO)C[C@@H]1C	-0.2
CCCCCCCCNC(C)C(O)c1ccc(SC(C)C)cc1 (centres undefined)	120.5*
CC(=O)c1ccc(NC(=O)CSc2nc(-c3ccccc3)cc(=O)[nH]2)cc1	-11.1
CCc1ccccc1NC(=O)CNS(=O)(=O)c1ccc(C)cc1	-0.4
C[C@H]1CN([C@@H](C)CO)C(=O)c2cc(NS(C)(=O)=O)ccc2O[C@H]1CN(C)Cc1ccc(Oc2ccccc2)cc1	12.7
CC(C)NC(=O)Nc1ccc2c(c1)CC(=O)N([C@@H](C)CO)C[C@@H](C)[C@@H](CN(C)S(=O)(=O)c1cccs1)O2	30.1
CCOc1ccc(NC(=O)Cn2ccc([N+](=O)[O-])n2)cc1	11.9
O=C(Cn1c(COc2ccccc2)nc2ccccc21)N1CCOCC1	-4.4
CCOC(=O)c1c(O)c(O)c(C(=O)OCC)n1-c1ccc(OC)cc1	26.3
O=C(NCCO)C(=O)NCc1ccco1	23.5
C[C@@H]1CN([C@@H](C)CO)C(=O)c2cccc(NC(=O)C3CC3)c2O[C@H]1CN(C)Cc1ccc(C(=O)Nc2ccccc2N)cc1	73.0
COc1ccc(CSCC(N)C(=O)O)cc1Br (centres undefined)	16.7
O=C(O)CCc1ccc(-c2cccs2)n1-c1cc(Cl)ccc1O	39.3
OCC1CCCN1CC1CC1 (centres undefined)	-7.5
CCNc1cc(N)[n+](CC)c2n[nH]c(N)c12	105.8*
O=C(Cn1cnc([N+](=O)[O-])c1)Nc1ccc(Cl)cc1Cl	1.6
Cc1noc(C)c1S(=O)(=O)Nc1cccc2c1O[C@@H](CN(C)Cc1ccc(Oc3ccccc3)cc1)[C@@H](C)CN([C@@H](C)CO)C2=O	-5.4
Cc1cccc(-n2c(C)nnc2SCC(=O)Nc2ccc(Br)cc2F)c1	-25.1
C[C@@H]1CN([C@H](C)CO)C(=O)c2cc(NC(=O)Nc3cccc4ccccc34)ccc2O[C@H]1CN(C)Cc1ccc(Oc2ccccc2)cc1	108.6*
COc1c(Cl)cc(C(=O)Nc2sc3c(c2C(=O)NC2CCS(=O)(=O)C2)CCC(C)C3)cc1Cl (centres undefined)	67.2
Cc1ccc(S(=O)(=O)N(C)C[C@H]2Oc3c(NS(=O)(=O)c4c(C)noc4C)cccc3C(=O)N([C@@H](C)CO)C[C@H]2C)cc1	67.7
C[C@@H]1CN([C@H](C)CO)C(=O)c2cc(NC(=O)NC3CCCCC3)ccc2O[C@@H]1CN(C)Cc1ccc(C(=O)Nc2ccccc2N)cc1	99.0*
COc1ccc(S(=O)(=O)N(C)C[C@@H]2Oc3c(NC(=O)CCCCCC(=O)Nc4ccccc4N)cccc3C(=O)N([C@H](C)CO)C[C@@H]2C)cc1	51.2
O=C(COc1cc(Cl)c(Cl)cc1Cl)Nc1ccccc1C(=O)N1CCCCC1	15.0
C[C@]12CCC3C(CC[C@@H]4C[C@H](O)CC[C@]34C)C1CC[C@]2(O)C(=O)CO (some centres undefined)	16.7
COc1ccc(OC)c(NC(=O)CNC(=O)c2cccs2)c1	6.3
c1ccc2c(c1)[nH]c1nc(SCCN3CCOCC3)nnc12	4.9
COc1ccc(N=c2scc(C)n2C(=O)c2ccccc2Cl)cc1	13.3
C[C@H](CO)N1C[C@H](C)[C@@H](CN(C)CC2CCCCC2)Oc2c(NC(=O)NC3CCCCC3)cccc2C1=O	54.4
C[C@@H]1CN([C@@H](C)CO)C(=O)c2cc(NS(=O)(=O)c3ccc(F)cc3)ccc2O[C@H]1CN(C)Cc1ccc(Cl)c(Cl)c1	?
C[C@H]1CN([C@@H](C)CO)C(=O)c2cc(NC(=O)c3ccncc3)ccc2O[C@@H]1CN(C)Cc1ccc(C(=O)Nc2ccccc2N)cc1	-2.6
The list continues.
SMILES	NOMO-1 viab
C[C@@H]1CN([C@H](C)CO)C(=O)c2cccc(NC(=O)c3ccc(-c4nccs4)cc3)c2O[C@H]1CN(C)S(=O)(=O)c1ccccc1	-3.6
C[C@@H]1CN([C@H](C)CO)C(=O)c2cc(NC(=O)Cn3cnnn3)ccc2O[C@@H]1CN(C)C(=O)Nc1ccccc1	12.9
C[C@@H]1CN([C@H](C)CO)C(=O)c2cccc(NC(=O)c3nc4ccccc4s3)c2O[C@@H]1CN(C)S(=O)(=O)c1cccs1	7.5
C[C@@H]1CCCCO[C@H](CN(C)C(=O)CCC(F)(F)F)[C@@H](C)CN([C@H](C)CO)C(=O)c2cc(NC(=O)c3ccccc3)ccc2O1	-0.9
COc1ccc(S(=O)(=O)N(C)C[C@@H]2Oc3c(NC(=O)Nc4ccc(C(F)(F)F)cc4)cccc3C(=O)N([C@H](C)CO)C[C@@H]2C)cc1	114.3*
Cc1cc(N(CC(=O)Nc2ccc(Oc3ccccc3)cc2)S(C)(=O)=O)ccc1Br	41.9
CCc1c(O)nc(SCC(=O)Nc2ccc(C(C)=O)cc2)[nH]c1=O	25.2
C[C@@H]1CN([C@H](C)CO)C(=O)Cc2cc(NS(=O)(=O)c3ccccc3)ccc2O[C@H]1CN(C)Cc1ccc(Oc2ccccc2)cc1	72.1
C[C@H](CO)N1C[C@H](C)[C@H](CN(C)CC2CC2)Oc2ccc(NC(=O)CCN3CCOCC3)cc2C1=O	-3.2
C[C@H]1CN([C@@H](C)CO)C(=O)c2cccc(NC(=O)C3CCOCC3)c2O[C@H]1CN(C)Cc1ccc(Oc2ccccc2)cc1	-3.2

Ordered by molar mass (rising): part of the list above.
SMILES	NOMO-1 viab
c1ccc2c(c1)[nH]c1nc(SCCN3CCOCC3)nnc12	4.9
CCc1c(O)nc(SCC(=O)Nc2ccc(C(C)=O)cc2)[nH]c1=O	25.2
COc1ccc(N=c2scc(C)n2C(=O)c2ccccc2Cl)cc1	13.3
Cc1cc(N(CC(=O)Nc2ccc(Oc3ccccc3)cc2)S(C)(=O)=O)ccc1Br	41.9
C[C@H](CO)N1C[C@H](C)[C@H](CN(C)CC2CC2)Oc2ccc(NC(=O)CCN3CCOCC3)cc2C1=O	-3.2
C[C@H](CO)N1C[C@H](C)[C@@H](CN(C)CC2CCCCC2)Oc2c(NC(=O)NC3CCCCC3)cccc2C1=O	54.4
C[C@H]1CN([C@@H](C)CO)C(=O)c2cccc(NC(=O)C3CCOCC3)c2O[C@H]1CN(C)Cc1ccc(Oc2ccccc2)cc1	-3.2
C[C@@H]1CN([C@H](C)CO)C(=O)c2cccc(NC(=O)c3nc4ccccc4s3)c2O[C@@H]1CN(C)S(=O)(=O)c1cccs1	7.5
C[C@@H]1CN([C@H](C)CO)C(=O)c2cccc(NC(=O)c3ccc(-c4nccs4)cc3)c2O[C@H]1CN(C)S(=O)(=O)c1ccccc1	-3.6
C[C@@H]1CCCCO[C@H](CN(C)C(=O)CCC(F)(F)F)[C@@H](C)CN([C@H](C)CO)C(=O)c2cc(NC(=O)c3ccccc3)ccc2O1	-0.9
C[C@@H]1CN([C@H](C)CO)C(=O)Cc2cc(NS(=O)(=O)c3ccccc3)ccc2O[C@H]1CN(C)Cc1ccc(Oc2ccccc2)cc1	72.1
COc1ccc(S(=O)(=O)N(C)C[C@@H]2Oc3c(NC(=O)Nc4ccc(C(F)(F)F)cc4)cccc3C(=O)N([C@H](C)CO)C[C@@H]2C)cc1	114.3*

The list goes on.
SMILES	NOMO-1 viab
COc1ccc(NC(=O)Nc2ccc3c(c2)C(=O)N([C@H](C)CO)C[C@H](C)[C@H](CN(C)C(=O)Cc2ccccc2)OCCCC[C@@H](C)O3)cc1	16.5
C[C@H]1CN([C@@H](C)CO)C(=O)Cc2cc(NC(=O)Nc3ccc4c(c3)OCO4)ccc2O[C@@H]1CN(C)C(=O)NC1CCCCC1	-10.5
COc1ccc(NC(=O)Nc2cccc3c2O[C@@H](CN(C)S(=O)(=O)c2ccc(OC)cc2)[C@H](C)CN([C@@H](C)CO)C3=O)cc1	4.2
C[C@@H]1CCCCO[C@@H](CN(C)C(=O)Nc2cccc3ccccc23)[C@@H](C)CN([C@H](C)CO)C(=O)c2cc(NC(=O)C3CCCCC3)ccc2O1	40.2
CC(C)c1ccc(OCC(O)Cn2cnc3ccccc32)cc1 (centres undefined)	52.0
CC(C)Cn1c(=O)c2cc3c(=O)n(CC(C)C)c(=O)c3c(C(=O)c3ccc(Cl)cc3)c2c1=O	28.2
Cc1ccc(C)c(OCCCCSc2ncccn2)c1Cl	43.6
NC(=O)C1(N2CCCCC2)CCN(CC(=O)Nc2ccc(F)c(Cl)c2)CC1	26.6
C[C@H](CO)N1C[C@H](C)[C@@H](CN(C)C(=O)Nc2ccc3c(c2)OCO3)Oc2ccc(NC(=O)CCCCCC(=O)Nc3ccccc3N)cc2C1=O	?
c1ccc(Oc2cccc(Oc3ccccc3)c2)cc1	52.7
O=C(Cc1ccccc1)NC1CCN(C(=O)c2cccs2)CC1	14.5
Cc1coc(C)c1C(=O)CC1(O)C(=O)N(Cc2ccc(Cl)cc2)c2ccccc21 (centres undefined)	69.5
O=C1C(=O)N(Cc2ccco2)C(c2cccc(Oc3ccccc3)c2)C1C(=O)c1cccs1 (centres undefined)	8.7
O=C(Cn1c2ccccc2n2nc(-c3ccco3)nc12)c1ccccc1	21.3
C[C@@H]1CN([C@@H](C)CO)C(=O)c2cc(NC(=O)Nc3cccc4ccccc34)ccc2O[C@@H]1CN(C)Cc1ccc(Oc2ccccc2)cc1	114.4*
Cc1ccc([N+](=O)[O-])cc1N(CC(=O)O)S(C)(=O)=O	2.5
C[C@H]1CN([C@@H](C)CO)C(=O)Cc2cc(NS(=O)(=O)c3ccccc3)ccc2O[C@H]1CN(C)CC1CCCCC1	35.3
Cc1ccc(S(=O)(=O)NCC(=O)N2CCN(c3ccccn3)CC2)cc1	-2.5
COc1ccc(NC(=O)N(C)C[C@H]2Oc3ccc(NC(=O)C4CCCCC4)cc3CC(=O)N([C@H](C)CO)C[C@H]2C)cc1	9.2
C[C@@H]1CN([C@H](C)CO)C(=O)c2cc(NC(=O)Cn3cnnn3)ccc2O[C@H]1CN(C)C(=O)Nc1ccc2c(c1)OCO2	-0.7
COC(=O)C1=C(C)N=c2s/c(=C/c3ccc(OC)cc3)c(=O)n2C1c1cccs1 (centres undefined)	?
COc1cccc(N(CC(=O)Nc2c(C)cc(C)cc2C)S(C)(=O)=O)c1	-13.4
Cc1ccc(C)c(NS(=O)(=O)c2cc(C(=O)Nc3cccc(N(C)S(C)(=O)=O)c3)ccc2C)c1	25.1
COc1ccc(NC(=O)N(C)C[C@@H]2Oc3c(NC(=O)c4ccc(-c5nccs5)cc4)cccc3C(=O)N([C@@H](C)CO)C[C@@H]2C)cc1	10.5
Cc1noc(C)c1CSc1nc2[nH]ncc2c(=O)n1-c1ccccc1	108.3*
Cc1noc(C)c1S(=O)(=O)Nc1ccc2c(c1)C(=O)N([C@H](C)CO)C[C@H](C)[C@@H](CN(C)S(=O)(=O)c1ccccc1)O2	4.3
COc1cc(S(=O)(=O)NCCN2CCOCC2)c(OC)cc1Cl	20.2
CNC[C@@H]1Oc2ccc(NC(=O)Nc3ccc4c(c3)OCO4)cc2C(=O)N([C@H](C)CO)C[C@H]1C	10.7
COc1ccc(-c2nc3cc4c(cc3o2)Oc2ccccc2N4)cc1	18.5
C[C@@H]1CCCCO[C@@H](CN(C)Cc2ccc(Cl)c(Cl)c2)[C@@H](C)CN([C@H](C)CO)C(=O)c2cc(NC(=O)Cc3ccccc3)ccc2O1	102.0*

The list is partial; the hit share may differ from the screen's.
